Bioassay records (PubChem)
AmpC nodet inh: blocks E. coli AmpC beta-lactamase in absence of detergent. AmpC nitrocefin hydrolysis, absorbance 480 nm, no detergent; potencies from a single point are estimates. P00811. 71,000 compounds, 1.8% hits. Potency, µM (highest dose often 28.7 µM), without a hit: at the highest dose activity change, negative = inhibition. AID 585; active = falling curve, for most hits resting on a single point; inconclusive = weak or doubtful change; inactive = flat or rising curve; also: % of control where 0% means no effect; about half of the hits show no inhibition at the top dose; a quarter of the inactives give rising signals
Target sequence (P00811 whole entry, looked up): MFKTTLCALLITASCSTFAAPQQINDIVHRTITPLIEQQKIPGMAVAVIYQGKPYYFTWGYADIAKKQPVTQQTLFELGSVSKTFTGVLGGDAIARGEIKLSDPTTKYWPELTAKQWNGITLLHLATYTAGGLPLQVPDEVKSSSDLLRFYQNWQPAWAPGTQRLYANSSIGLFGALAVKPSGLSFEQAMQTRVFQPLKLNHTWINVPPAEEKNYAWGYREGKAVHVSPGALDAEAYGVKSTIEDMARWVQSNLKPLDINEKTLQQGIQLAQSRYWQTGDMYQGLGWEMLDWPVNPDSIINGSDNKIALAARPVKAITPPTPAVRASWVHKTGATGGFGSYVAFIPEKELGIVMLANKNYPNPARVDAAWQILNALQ
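AmpC, 20 mM phosphate pH 7.0; 15 min cpd preinc, RT; start with nitrocefin (800 uM stock); A480 kinetic read, 20 s intervals, 4 min. No-enzyme wells = negative control.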
An asterisk follows results filed as active; & = joins results of further samples; [ ] = another dose, or the depositor's remark. Potency is read from the fitted curve at half-maximal effect. Not all compounds are listed; the hit share may differ from the screen's.

SMILES | AmpC nodet inh
COc1ccccc1N(CC(=O)NCCSc1ccccc1)S(C)(=O)=O | 56%
Cc1ccc(S(=O)(=O)C(CCC(=O)N2CCOCC2)S(=O)(=O)c2ccc(C)cc2)cc1 | 97%
Nc1[nH]ncc1C(=O)Nc1cccc(C(F)(F)F)c1 | -5%
Cc1ccc(NCN2C(=O)c3ccccc3C2=O)c(C)c1 | 3%
O=c1[nH]c(NCc2ccccc2)nc2c1CCC2 | -1%
O=C(c1ccco1)N1CCC[C@@]2(CCN(Cc3nccs3)C2)C1 | 51%
CC(=O)Nc1ccc(S(=O)(=O)NCc2cn3ccsc3n2)cc1 | -8%
Cc1cccc(-n2nnnc2SCC(=O)c2cc(C)n(CC3CCCO3)c2C)c1 (centres undefined) | 58%
CCCCc1c2ccccc2nc2[nH]c3ccccc3c12 | 27%
c1csc(-c2ccc3ccccc3n2)c1 | -8%
COC(=O)c1cc(NC(=O)CC2C(=O)NCCN2C(=O)c2ccccc2)cc(C(=O)OC)c1 (centres undefined) | 34%
CCOC(=O)c1c(C)nc(-c2ccccc2)nc1NC(C)=O | 36%
CCOc1cc(CN2CCN(C(=O)c3ccco3)CC2)ccc1OC | 21%
CCOC(=O)c1c(NC(=O)COc2ncnc3sccc23)sc2c1CCC2 | 19%
CCn1c(SCC(=O)Nc2ccccc2N2CCOCC2)nnc1-c1ccccc1O | 19%
Cc1cc2nnc(SCC(=O)NCc3cccs3)n2c(N)n1 | 6%
COc1cccc(-n2c(SCC#N)nnc2-c2cnccn2)c1 | 8%
O=c1ccc2ccccc2o1 | -8%
Cn1c(=O)oc2cc(S(=O)(=O)N3CCCC(C(=O)N4CCc5ccccc5C4)C3)ccc21 (centres undefined) | 56%
NCCSS(=O)(=O)CCN | 7%[5.75 µM]
Clc1ccc(COC(Cn2ccnc2)c2ccc(Cl)cc2Cl)c(Cl)c1 (centres undefined) | 45%[12.8 µM]
CCC(C)(C)n1nnnc1CN(Cc1ccco1)Cc1cc2cc3c(cc2[nH]c1=O)OCO3 | 63%
CCN(CC)CCN=C1CCCc2ccccc2N1 | 3%
CC(Oc1cc(C(F)(F)F)cc(C(F)(F)F)c1)C(=O)NC(N)=O (centres undefined) | 24%
O=C1OC2CC3CC1CC(O)(C3)C2 (centres undefined) | -4%
Cc1c(C(=O)N2CCOCC2)sc2ncn(CC(=O)N3CCC(C)CC3)c(=O)c12 | 17%
COc1ccc(CNC(=O)c2cnn3c(C(F)F)cc(C)nc23)cc1OC | 43%
O=C(CN1C(=O)CSc2ccccc21)Nc1ccc2c(c1)OCCO2 | -24%
O=C(OCCOc1ccc(Br)cc1)c1cnccn1 | 29%
CCOc1ccccc1C(=O)NC(C)c1ccc2c(c1)OCO2 (centres undefined) | -2%
CSc1cccc(NC(=O)C2CCN(S(C)(=O)=O)CC2)c1 | 6%
CCCN1C[C@@H](CSC)C[C@H]2c3cccc4[nH]cc(c34)C[C@@H]21 | 21%

5 structures already listed, arranged by count of non-hydrogen atoms, smallest number first:
SMILES | AmpC nodet inh
O=C1OC2CC3CC1CC(O)(C3)C2 (centres undefined) | -4%
O=C(OCCOc1ccc(Br)cc1)c1cnccn1 | 29%
CCCN1C[C@@H](CSC)C[C@H]2c3cccc4[nH]cc(c34)C[C@@H]21 | 21%
CCOc1ccccc1C(=O)NC(C)c1ccc2c(c1)OCO2 (centres undefined) | -2%
COc1ccc(CNC(=O)c2cnn3c(C(F)F)cc(C)nc23)cc1OC | 43%

Remaining list, next part.
SMILES | AmpC nodet inh
COc1cc(C(=O)NCc2nnc(SCC(=O)Nc3cccc(C)c3)o2)cc(OC)c1OC | 20%
CC(C)(C)OC(=O)N1CC=C2C(C#N)=C(N)C(C#N)(C#N)C(c3cccs3)C2C1 (centres undefined) | 13%
CCn1c(O)c(C=Nc2ccccc2)oc1=S | -22%
Nc1cccc(S(=O)(=O)c2cccc(N)c2)c1 | -11%
Cc1ccc(NC(=O)C2(N(CC(C)C)C(=O)Cn3nnnc3N)CCCCC2)cc1 | 1%
COC(=O)[C@@]1(Cc2ccccc2)[C@H]2c3cc(C(=O)N(C)C)n(Cc4ccccc4)c3C[C@H]2CN1C(=O)c1ccccc1 | 186%
COc1cc(C2N(c3ccccc3)CCN2c2ccccc2)ccc1OC(C)=O | -3%
CCOC(=O)CSc1nc2sc(C)c(C)c2c(=O)n1C | 27%
CCOc1c(Br)cc(CNc2ncn[nH]2)cc1OC | 5%
Cc1cc(N=Cc2c(O)n(-c3ccc4c(c3)OCO4)c(=O)c3ccccc23)ccn1 | 111%
CN(Cc1ccco1)c1ncnc2ccc(-c3ccccc3C(F)(F)F)cc12 | 62%
COC(=O)[C@@]1(Cc2ccc(OC)cc2)[C@H]2c3cc(C(=O)N(C)C)n(CCc4ccc(OC)c(Br)c4)c3C[C@H]2CN1C(=O)c1ccccc1 | 146%
Cc1ccc(-c2nc3ncccc3o2)cc1NC(=O)c1ccco1 | -4%
O=C(Cc1cccs1)N(c1ccc(Cl)cc1)C1C=CS(=O)(=O)C1 (centres undefined) | 0%
CCOC(=O)c1nn(-c2sc(C(=O)OC)c(C)c2C(=O)OC)cc1O | 5%
CCC1=C/C(=C/N(C)c2ccccc2)C(=O)S1 | -8%
COc1ccccc1OCC(=O)Nc1cccc(-c2nc3ccccc3o2)c1 | 34%
CN(CC(=O)Nc1nc2ccccc2s1)S(=O)(=O)c1ccccc1 | 1%
Clc1ccc(OCc2nn3c(-c4ccncc4)nnc3s2)cc1 | 18%
O=C1COc2ccc(C(=O)COC(=O)C3CCN(S(=O)(=O)c4cccs4)CC3)cc2N1 | -4%
O=C(Nc1cccnc1)c1ccc(COc2ccccc2Br)o1 | 20%
CCN(CC)C(=O)CSc1nnc(-c2ccccn2)n1-c1ccc(C)c(C)c1 | 96%
Cc1ccccc1NC(=O)CN1CCC(NC(=O)Nc2ccccc2)CC1 | 8%
Cc1ccc(N2CCN(S(=O)(=O)N(C)C)CC2)c(C)c1 | 43%
Cc1nn(-c2ccccc2)c(C)c1/C=N/O | -2%
CCOc1ccc(-c2nnn(CC(=O)Nc3ccccc3OC)n2)cc1OCC | 16%
CCCNC(=O)c1cc(-c2ccc(Br)cc2)on1 | -7%
Cc1nnc(SCC(=O)n2c3c(c4ccccc42)CCCC3)s1 | 68%
COc1ccc2c(c1)CCc1c(C(=O)N3CCc4ccccc4C3)noc1-2 | 23%
Cc1occc1C(=O)NCc1cccs1 | -4%
Cc1[nH]n(-c2ccccc2)c(=O)c1/C=N/O | -10%
Cc1ccc(N(CC(=O)N2CC(=O)Nc3ccccc32)S(=O)(=O)c2ccc3c(c2)OCCO3)cc1 | 12%
Cc1ccc(NCc2nnc(SCCN3CCCCC3)n2CC2CCCO2)cc1Cl (centres undefined) | 106%
COc1ccc2c(CCNC(=O)c3ccco3)c[nH]c2c1 | -15%
O=C(Nc1cccnc1)c1ccc2c(c1)OCO2 | 1%
Cc1ccccc1S(=O)(=O)Nc1nc2ccccc2nc1N1CCOCC1 | 3%
COc1ccc(OC)c(NC(=O)COc2ccc(S(=O)(=O)NC(C)C)cc2)c1 | 21%
O=C(Oc1ccccc1)N1CCN(c2ccc(F)cc2)CC1 | 11%
Cc1cc(C)nc(-n2nc(C)cc2Nc2ccccc2)n1 | 107%
CCOC(=O)c1ccc(-n2[nH]c(-c3ccccc3)cc2=O)cc1 | -7%
CCCOC(=O)c1ccc(NC(=O)C2CCCO2)cc1 (centres undefined) | 3%
O=S(=O)(Nc1nc2ccccc2nc1NCc1ccco1)c1cccs1 | -19%
O=C(Nc1ccccc1)N(C1=NCCC1)c1ccc(OC(F)F)cc1 | 41%
Clc1ss/c(=N\c2ccccn2)c1Cl | -16%
Brc1cccc(/C=N\n2cnnc2)c1 | 4%
O=C(Nc1ccc(Cc2ccc(NC(=O)C3CC3)c(O)c2)cc1O)C1CC1 | -8%
COc1ccccc1C(c1nnnn1C(C)(C)C)N1CCN(Cc2ccncc2)CC1 (centres undefined) | 53%
CCN1CCN(C(c2cccs2)C(C)NS(=O)(=O)c2ccc(F)cc2)CC1 (centres undefined) | 3%
O=C1c2ccccc2C(=O)c2c1ccc(N1C(=O)c3ccccc3C1=O)c2-c1c(N2C(=O)c3ccccc3C2=O)ccc2c1C(=O)c1ccccc1C2=O | -2%[5.75 µM]
CC(=O)c1cccc(NC(=O)c2cc(-c3ccc(F)cc3)on2)c1 | -2%
CCOc1ccc(C2/C(=C(/O)c3ccccc3)C(=O)C(=O)N2CCCN(C)C)cc1OC (centres undefined) | 13%
O=C(Cc1cccs1)NCc1ccco1 | -7%
C=Cn1ccnc1P(=S)(c1c(C)nn(-c2ccccc2)c1C)c1nccn1C=C | 106%
Cc1cc(=O)[nH]c(N2CCCC2)n1 | -3%
COc1ccccc1CN1CCC2(CC1)CCN(C(=O)c1ccco1)CC2 | -19%
O=C1CCC(C(=O)OCc2cc(Cl)ccc2OC(F)F)N1 (centres undefined) | 20%

Random excerpt: two records from the list
SMILES | AmpC nodet inh
CCCNC(=O)c1cc(-c2ccc(Br)cc2)on1 | -7%
CN(CC(=O)Nc1nc2ccccc2s1)S(=O)(=O)c1ccccc1 | 1%

(cont.)
SMILES | AmpC nodet inh
O=C1c2ccccc2C(Nc2ccc3nc(-c4cccnc4)[nH]c3c2)N1Cc1ccco1 (centres undefined) | 50%
Cc1cc(-c2nc3ncccc3o2)ccc1NC(=O)CC(C)C | 10%
NC(=O)CSP(=O)(c1ccccc1)c1ccccc1 | -2%
CN(C)CCCN1C(=O)c2oc3ccccc3c(=O)c2C1c1cccs1 (centres undefined) | 4%
CCN(CC)CCCN=Cc1c(O)n(CCc2ccc(OC)c(OC)c2)c(=O)[nH]c1=O | 0%
COc1ccc(N(CC(=O)NCc2ccco2)S(=O)(=O)c2c(C)nn(C)c2C)cc1 | 51%
CN1C(=O)CSc2ccc(NC(=O)NCc3cccnc3)cc21 | -8%
O=c1c2ccccc2c2ccccc2c(=O)n1Cc1ccco1 | -9%
COC(=O)c1cc2oc(C)cc2n1CC(=O)Nc1cc(C)cc(C)c1 | -6%
C=C(C)C1CCC(C)=C1CC(C)(C)/C=N\n1cnnc1 (centres undefined) | 69%
CN(CCCNC(=O)C1CCN(S(=O)(=O)N2CCC3(CC2)OCCO3)CC1)Cc1ccccc1 | -7%
O=C(CN1C(=O)c2cccc3cccc1c23)N1CCN(c2ccc(F)cc2)CC1 | 1%
COc1ccc(Cc2nc(-c3ccc(-n4cccc4)cc3)no2)cc1OC | 92%
O=C(O)[C@H]1C[C@@H](CP(=O)(O)O)CCN1 | 4%
O=C1CCCc2nc(N3CCN(C(c4ccccc4)c4ccccc4)CC3)ncc21 | 68%
O=C(COc1ncnc2ccccc12)NC1CCS(=O)(=O)C1 (centres undefined) | -5%
CCCn1c(SCC(=O)N2CCN(S(=O)(=O)c3ccc(Cl)cc3)CC2)n[nH]c1=O | 71%
COCCn1nnnc1C(c1cc2cc(OC)ccc2[nH]c1=O)N1CCC(Cc2ccccc2)CC1 (centres undefined) | 110%
CCN(CC)S(=O)(=O)c1cc(C(=O)n2cccn2)c(Cl)cc1Cl | 13%
CCN1CCCC1CNC(=O)C1c2ccccc2C(=O)N(CCOC)C1c1ccc(F)cc1 (centres undefined) | 15%
CC1=CC(=O)CC(C)(C)[C@@]1(O)/C=C\C(C)=C\C(=O)O | 4%
COCCNC(=O)C1(CC(C)C)C=CCN1C(=O)OC (centres undefined) | 15%
CSC1=NCCN1C(=O)Cc1cccs1 | -4%
Cc1nnc(SCCCN2C(=O)c3ccccc3C2=O)o1 | 21%
O=C(c1cc2ccccc2o1)c1nc2c(n1O)CCCCC2 | -8%
O=C1C(CCS(=O)c2ccccc2)C(=O)N(c2ccccc2)N1c1ccccc1 (centres undefined) | -22%[12.8 µM]
C[C@@H](C(=O)O)[C@H]1C[C@]1(C)[C@H](NC(=O)OCc1ccccc1)c1ccccc1 | 12%
ClC(Cl)=C(Cl)C(Cl)=C(Cl)Cl | -7%
O=C(CN1C(=O)C2C3C=CC(C3)C2C1=O)N1CCc2ccccc2C1 (centres undefined) | 23%
Cc1ccc2c(c1C)NC(C(=O)O)C1CC=CC21 (centres undefined) | 4%
O=C(O)Cn1c(O)c(C=Nc2ccccc2)sc1=S | 5%
CCC1CCCCN1CCNC(=O)c1[nH]c(C)c(C(C)=O)c1C (centres undefined) | -4%

Next part, overlapping the part above by 2 compounds.
SMILES | AmpC nodet inh
O=C(O)Cn1c(O)c(C=Nc2ccccc2)sc1=S | 5%
CCC1CCCCN1CCNC(=O)c1[nH]c(C)c(C(C)=O)c1C (centres undefined) | -4%
Cc1cccc([C@@H]2CN(C)CCc3c2cc(O)c(O)c3Cl)c1 | 18%&-3%
Oc1ccc(-c2csc(Nc3cccnc3)n2)cc1 | -6%
Cn1c(=O)[nH]c(=O)c2c1nc(CN1CCN(c3ccccc3F)CC1)n2CCCc1ccccc1 | 124%
N#CCCn1c(=O)c(-c2ccccc2)nc2cnc(Oc3cccc(Cl)c3)nc21 | 8%
O=C(Cc1ccc(S(=O)(=O)N2CCOCC2)s1)NCC1CCCCC1 | 26%
CC(C)C[C@@H]1NC(=O)N(CCN2CCOCC2)C1=O | 5%
Cc1nn2c3c(cnc2c1-c1ccc(Cl)cc1)C(=O)CC(c1ccco1)C3 (centres undefined) | 7%
N#CC1=C(N)Oc2n[nH]c(-c3ccccc3)c2C12C(=O)Nc1ccccc12 (centres undefined) | -11%
O=C(O)CCCNS(=O)(=O)c1ccc2ccccc2c1 | 3%
Cc1cc(C)cc(N2C(=O)CSC2c2cccs2)c1 (centres undefined) | -7%
Cc1ccc(-c2cc(C(=O)Nc3cnn(C45CC6CC(CC(C6)C4)C5)c3)no2)cc1 | -6%
